Calb biofilm kill: mixture kills Candida albicans biofilm cells; C. albicans biofilm persisters + clotrimazole, fluorescence viability; primary screen in compound mixtures of four per well; AID 1242; inhibition, % at 7.6 µM; 120,000 compounds, 0.02% hits;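 active = inhibition above 30.3% in the primary screen of four-compound pools, then above 30% when the compound was retested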;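 note: compounds exposed to preformed 24 h biofilms for 48 h; the number belongs to the whole pool; some results filed as inactive read as strong as hits; inactives centre near 12; 0% = biofilm with clotrimazole alone and 100% = kill control; retested singly at about 60 µM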
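System: C. albicans CAF4-2 wild-type biofilms; Medium: RPMI/MOPS medium, pH 7.0; Reagent: Clotrimazole, 50 µg/mL; Times: biofilm formation 24 h, compound exposure 48 h, 37 °C; Detection: 2-h Alamar Blue fluorescence, 535/590 nm excitation/emission; Evaluation: percent inhibition of biofilm viability.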
* = called active by the depositor; & = joins results of further samples.

SMILES	Calb biofilm kill
CC(C)C(=O)Nc1nnc(SCC(=O)NCC2CCCO2)s1 (stereo unspecified)	13
COC(=O)c1ccc(CNC(=O)COC(=O)C23CC4CC(CC(C4)C2)C3)cc1	18
O=C(O)/C=C/c1ccc(S(=O)(=O)NCc2cccnc2)cc1	17
CC1CCN(Cc2cc(=O)oc3ccc4ccccc4c23)CC1	23
CC(C)CC(NC(=O)CNC(=O)C1O[C@@H]2OC(C)(C)O[C@@H]2[C@H]2OC(C)(C)O[C@@H]12)C(=O)O (stereo partly specified)	-2
CCOc1ccccc1NC(=O)NCc1ccc(F)cc1	12
Cc1sc2nc3c(C(=O)N4CCCC4)cc(C(=O)c4ccccc4O)cn3c(=O)c2c1C	13
Cc1nc2ncnn2c(C)c1Cc1cccc(F)c1	11
CC(=O)c1cccc(NC(=O)COc2cc3oc(=O)c(CC(C)O)c(C)c3cc2Cl)c1 (stereo unspecified)	14
COc1ccc(NC(=O)CSCC(=O)N2c3ccccc3CCc3ccccc32)cc1	20
Cc1cccnc1NC(=O)C(C)N1C(=O)c2ccccc2C1=O (stereo unspecified)	20
Cc1[nH][nH]c(=O)c1N=Nc1ccccc1C#N	-1
O=C1CCN(S(=O)(=O)c2ccccc2)CCN1CCOCc1ccc(F)cc1	20
Cc1cccc2c3c([nH]c12)C(=O)CC(C)(C)S3	28
O=C(CC1NCCc2ccccc21)Nc1ccc(Cl)cc1 (stereo unspecified)	-5
CC1C(=O)NC(=O)C1c1ccccc1 (stereo unspecified)	3
NC(=O)c1cccc2ccccc12	25
COc1ccccc1N1CCN(C(=O)Cc2c(C(=O)O)[nH]c3ccc(Cl)cc23)CC1	8
COc1ccc(-n2c(N)cc(=O)[nH]c2=O)cc1	15
O=S(=O)(c1c(Cl)sc(Cl)c1Br)N1CCCC1	14
COc1ccccc1C(=O)Nc1sc(C(=O)N2CCCC2)c(C)c1C#N	10
COc1ccc(NC(=O)C(C)Sc2nnc3c4c(nc(-c5ccc(OC)cc5)n23)CC(C)(C)OC4)cc1 (stereo unspecified)	22
CCOc1ccc(/C(O)=C2/C(=O)C(=O)N(CC3CCCO3)C2c2ccco2)cc1 (stereo unspecified)	11
O=C(Nc1nc2nccc(-c3ccccc3)n2n1)c1ccc(F)cc1	17
CCc1cc2c(C)ccc(C)c2nc1SCC(=O)Nc1c[nH]c(=O)[nH]c1=O	-4
CC1CC1C(=O)OCC(=O)Nc1cccc(S(=O)(=O)NC2=NCCCCC2)c1 (stereo unspecified)	32
O=C(NC(Cc1c[nH]c2ccccc12)C(=O)O)/C(=C/c1ccco1)NC(=O)c1ccccc1 (stereo unspecified)	10
COC(=O)c1ccncc1C(=O)Nc1ccc(F)cc1	15
Cc1ccccc1N=C(NO)c1nonc1N	23
O=C(C/C=N\OCc1ccc(Cl)cc1Cl)Nc1ccccc1	13
CC(C)(C)C(=O)N1NC(=Nc2ccccc2)SC1(C)C	14
O=C(NCc1cccnc1)c1ccc(-c2cccc(Cl)c2Cl)o1	11
CC(C)C(=O)NNC(=O)CC(=O)Nc1ccccc1C(=O)O	9
COc1ccc(NC(=O)c2noc3c2CCCCC3)cc1	12
CCN(CC)C(=O)c1c(C)[nH]c(=S)c(C#N)c1-c1ccco1	-3
COc1cc(OC)cc(C(=O)N[C@H](C(=O)OCC(=O)NC(=O)NC(C)(C)C)C(C)C)c1	12
O=C(Nc1ccc(C(F)(F)F)cc1)C1(c2ccccc2)CC1	15
O=c1n(-c2ccccc2)c(=O)n2n1CC(O)C2	14
OCC1(CCc2ccccc2)CCN(Cc2cc(Cl)ccc2O)CC1	17
Cc1cc2c(N=NC(=O)CCc3ccccc3)c(O)[nH]c2cc1Br	-14

Structures from the list above with an aryl thioether with sulfur outside any ring (three):
SMILES	Calb biofilm kill
CC(C)C(=O)Nc1nnc(SCC(=O)NCC2CCCO2)s1 (stereo unspecified)	13
COc1ccc(NC(=O)C(C)Sc2nnc3c4c(nc(-c5ccc(OC)cc5)n23)CC(C)(C)OC4)cc1 (stereo unspecified)	22
CCc1cc2c(C)ccc(C)c2nc1SCC(=O)Nc1c[nH]c(=O)[nH]c1=O	-4

Three compounds from above, sorted by count of non-hydrogen atoms, ascending:
SMILES	Calb biofilm kill
O=C(C/C=N\OCc1ccc(Cl)cc1Cl)Nc1ccccc1	13
Cc1cc2c(N=NC(=O)CCc3ccccc3)c(O)[nH]c2cc1Br	-14
COc1ccc(NC(=O)C(C)Sc2nnc3c4c(nc(-c5ccc(OC)cc5)n23)CC(C)(C)OC4)cc1 (stereo unspecified)	22

Other records.
SMILES	Calb biofilm kill
O=C(c1cc(-c2ccccn2)nc2c(Cl)cccc12)N1CCN(S(=O)(=O)c2ccccc2)CC1	4
CC(Oc1ccccc1F)c1ccnc2nc(/N=C/N(C)C)nn12 (stereo unspecified)	4
O=C1C2CCCCC2C(=O)N1c1cccc(OS(=O)(=O)c2ccccc2)c1 (stereo unspecified)	0
S=C(NCc1ccccc1)NCc1ccc(CNC(=S)NCc2ccccc2)cc1	-1
CCCn1c(SCC(=O)Nc2nc(-c3ccc(OC)cc3)cs2)nc2c1c(=O)n(C)c(=O)n2C	14
CC(C)c1onc(C(=O)N(C)Cc2ccccc2)c1[N+](=O)[O-]	13
CCc1ccc(OCC(=O)O/N=C(\N)Cc2ccc([N+](=O)[O-])cc2)cc1	8
CCc1nnc(NS(=O)(=O)c2ccc(NC(=S)NC(=O)c3ccc(F)cc3)cc2)s1	14
CCCC(CCC)C(=O)Nc1ccc2c(c1)N(C(=O)CN1CCN(C)CC1)c1ccccc1CC2	-13
O=C(Nc1nc2ccccc2s1)c1ccc2c(c1)S(=O)(=O)c1ccccc1C2=O	10
CCOC(=O)c1cc(NC(=O)COc2ccc([N+](=O)[O-])cc2)cc(C(=O)OCC)c1	6
COc1ccc(CNc2ncnc3cc(Cl)ccc23)cc1	13
C=CCO/N=C(/C)c1c(O)c(CC)c(-c2ccccc2)n(-c2ccccc2)c1=O	11
C=CCSC1=NN2CCS(=O)(=O)N=C2S1	19
O=C(CNC(=O)c1cccs1)N/N=C/c1c[nH]c2ccccc12	5
O=C(Nc1nc(-c2cccs2)c(C(=O)C(F)(F)F)s1)c1ccccc1	15
O=c1c2oc3ccccc3c2[nH]c(=S)n1-c1ccc(F)cc1	11
CCCNCc1cc(OC)c(OCc2ccccc2)cc1Br	9
CCC(C(=O)c1ccc2ncccc2c1)c1ccccc1 (stereo unspecified)	14
COc1ccc(C(OCC2CO2)c2ccc(OC)cc2)cc1 (stereo unspecified)	17
S=C(Nc1cccc(Br)c1)N1CCn2cccc2C1c1cccnc1 (stereo unspecified)	16
CN(C)c1ccc(NC2=C(Cl)C(=O)c3ccccc3C2=O)cc1	17
CC(C)C(=O)Nc1cccc(S(=O)(=O)c2cccc(NC(=O)C(C)C)c2)c1	15
O=C1C(Cl)=C(Nc2ccccc2)C(=O)c2ccccc21	19
COc1ccccc1NS(=O)(=O)c1cccc(C(=O)N/N=C/c2ccccc2OCC(=O)O)c1	1
CC1=NOC(=O)/C1=C\c1ccc(-c2ccccc2Br)o1	16
Cc1nn(C)c(C)c1C1C(C#N)=C(N)OC2=C1C(=O)CCC2 (stereo unspecified)	21
COc1ccc(CCNC(=O)c2cc(=O)[nH]c3ccc(Br)cc23)cc1OC	11
COc1ccc(NC(=O)Nc2ccon2)c(OC)c1	11
O=C(c1ccc(C(=O)N2CCN(c3ccccc3F)CC2)nc1)N1CCN(c2ccccc2F)CC1	3
Cc1cccc(C(=O)NC(=S)NNC(=O)COc2ccc(Cl)cc2)c1	2
CCOc1ccc(CN2CCN(Cc3nc4c(s3)CCCC4)CC2CCO)cc1 (stereo unspecified)	27
Cc1ccc(C2(C)NC(=O)N(CC(=O)Nc3ccc4[nH]c(=O)[nH]c4c3)C2=O)cc1 (stereo unspecified)	-5
CN(C)CCCN(C(=O)CCOc1ccccc1)c1nc2c(F)cccc2s1	24
COc1ccccc1/C=N/NC(=O)Cn1cnc([N+](=O)[O-])n1	20
CCOP(=O)(OCC)C(NC(=O)Nc1ccc(Cl)cc1)C(N)=O (stereo unspecified)	6
CC(O)Cn1nc([N+](=O)[O-])nc1N (stereo unspecified)	8
Cc1cccc(N2C(=O)CN(Cc3cccs3)C2=S)c1	25
CC(OC(=O)CCc1nc2ccccc2c(=O)[nH]1)C(=O)c1ccc(Br)cc1 (stereo unspecified)	10
Brc1cc2c(cc1Br)OCCOCCOCCOCCO2	3
COc1ccc(NC(=O)c2ccc3c(SCC(=O)O)c4c(nc3c2)CCCC4)cc1Cl	11
O=C(CNC(=O)c1ccccc1)N/N=C/c1ccc([N+](=O)[O-])o1	21
O=C(Cn1cc(F)c(=O)[nH]c1=O)NCCO	8
COCCNC(=O)/C(C#N)=C/c1ccc(SC)cc1	16
O=C(NCC1CCCN(C(=O)c2cccnc2)C1)c1ccc(-c2ccccc2)cc1 (stereo unspecified)	18
CCOC(=O)N1CCC(NC(=O)c2cc(C(=O)Nc3ccc(S(=O)(=O)N4CCCCC4)cc3)ccc2CO)CC1	8
O=C1/C(=C/c2cccs2)SC(=S)N1c1cccc(O)c1	38
Cc1nc(N2CCN(Cc3ccccc3)CC2)c(C#N)c2c1COC(C)(C)C2	18
O=[N+]([O-])c1cc2c(cc1Br)CCN2	10
Cn1c(=O)c2c(nc(N/N=C/c3ccc(OC(=O)c4ccco4)cc3)n2Cc2ccc(F)cc2)n(C)c1=O	9
CC(C)OC(=O)c1cc(C(=O)c2cc(Br)ccc2O)coc1=N	12
Cc1csc(SCC(=O)NCc2ccccc2Cl)n1	12
CCN1CCN(C(=S)c2ccc(OCC(=O)NCc3ccccc3)cc2)CC1	9
CC(C)NC(=S)N/N=C/c1ccc2c(c1)OCCO2	16
O=C(NC(=S)N1CCN(CCO)CC1)C12CC3CC(CC(C3)C1)C2	3
O=C(N/N=C/c1ccccn1)c1cc(-c2cccc3ccccc23)n[nH]1	13
Cc1nc2sc(C(c3ccccc3)N3CCOCC3)c(O)n2n1 (stereo unspecified)	19
O=C(NCc1ccccn1)c1ccc(CNS(=O)(=O)c2cccc(C(F)(F)F)c2)cc1	18
CC[n+]1c(/C=C/Nc2ccccc2)oc2ccc(OC)cc21	14
CN1[C@@H]2CC(OC(=O)[C@H](CO)c3ccccc3)C[C@H]1[C@@H]1O[C@@H]12 (stereo partly specified)	12&15

The final seven compounds of the part before come first, to join the parts:
SMILES	Calb biofilm kill
CC(C)NC(=S)N/N=C/c1ccc2c(c1)OCCO2	16
O=C(NC(=S)N1CCN(CCO)CC1)C12CC3CC(CC(C3)C1)C2	3
O=C(N/N=C/c1ccccn1)c1cc(-c2cccc3ccccc23)n[nH]1	13
Cc1nc2sc(C(c3ccccc3)N3CCOCC3)c(O)n2n1 (stereo unspecified)	19
O=C(NCc1ccccn1)c1ccc(CNS(=O)(=O)c2cccc(C(F)(F)F)c2)cc1	18
CC[n+]1c(/C=C/Nc2ccccc2)oc2ccc(OC)cc21	14
CN1[C@@H]2CC(OC(=O)[C@H](CO)c3ccccc3)C[C@H]1[C@@H]1O[C@@H]12 (stereo partly specified)	12&15
Cc1ccc(NC(=S)N(CCN2CCOCC2)Cc2cc3cc4c(cc3[nH]c2=O)OCO4)cc1	-3
CC(C)C(=O)N1CCN(c2ccccc2NC(=S)NC(=O)c2cccs2)CC1	5
CCN(CC)S(=O)(=O)c1ccc(Cl)c(C(=O)NCc2ccco2)c1	14
Cc1cc(/C=N/NC(=O)c2ccc(O)cc2)c(C)n1CC(C)C	7
Cc1ccc2nc(Cl)c(C3CC(c4ccco4)=NN3S(C)(=O)=O)cc2c1 (stereo unspecified)	11
Cc1cccc(C(=O)Nc2nnc(C3=COCCO3)o2)c1	16
Cc1ccccc1NC(=S)NCc1ccccc1	3
COC(=O)c1ccc(NC(=O)C23CC4CC(C2)CC(n2cncn2)(C4)C3)cc1	17
Cc1cc(C)c2c(c1)/C(=N\N=c1\sc3ccccc3n1C)C(=O)N2	17
CN1/C(=C\C=N\NC(=O)c2ccc(O)cc2)C(C)(C)c2ccccc21	8
Cc1ccc(NC(NC(=O)Cc2ccccc2)C(Cl)(Cl)Cl)cc1 (stereo unspecified)	6
CCCNC(=O)C/C(C)=N/NC(=O)COc1ccc(C)cc1Br	-4
CCOC(=O)c1ccc(OC)c(OC)c1Cl	13
Cc1ccc(C2(c3noc(CN(C)CC4COCCO4)n3)CCCC2)cc1 (stereo unspecified)	18
CC(c1ccon1)N(C)Cc1cn(C)nc1-c1cccc(Cl)c1 (stereo unspecified)	12
Cc1ccc(NS(=O)(=O)c2ccc(Br)s2)cc1S(=O)(=O)N1CCOCC1	14
CCOc1cc(/C=C2\SC(=N)N(c3nonc3N)C2=O)ccc1OCC(N)=O	23
O=C(COC(=O)CNC(=O)c1ccco1)Nc1ccccc1OC(F)F	14
Nc1nc(SCC(=O)NCCO)nc2sc3c(c12)CCCC3	16
CC1(C)CC2(CC(c3ccccc3F)c3cc(Cl)c(O)cc3O2)NC(=S)N1 (stereo unspecified)	10

Some of the entries above in a different format.
| SMILES | Calb biofilm kill |
| --- | --- |
| CN1/C(=C\C=N\NC(=O)c2ccc(O)cc2)C(C)(C)c2ccccc21 | 8 |
| Cc1ccccc1NC(=S)NCc1ccccc1 | 3 |
| CC1(C)CC2(CC(c3ccccc3F)c3cc(Cl)c(O)cc3O2)NC(=S)N1 (stereo unspecified) | 10 |

Further entries follow.
SMILES	Calb biofilm kill
Cc1cc(=O)oc2cc(OCCCC[n+]3ccccc3)ccc12	12
CCOC(=O)NNC(=O)CCn1c2c(c3ccccc31)CCCC2	18
O=C(CCN1C(=O)/C(=C\c2cccs2)SC1=S)NC1=NCCS1	11
O=C(/C=C/c1ccc(S(=O)(=O)N2CCOCC2)cc1)OCC(=O)c1ccc([N+](=O)[O-])cc1	8
Cc1ccc(Nc2nnc(SC3CCOC3=O)s2)cc1 (stereo unspecified)	16

The list is partial, so the mix of outcomes need not match the whole.
